Mtb growth – M. tuberculosis H37Rv growth inhibitors, H37Rv strain (AID 1626). M. tuberculosis H37Rv growth inhibition; higher % means a stronger effect. 220,000 compounds, 0.95% hits. one-dose inhibition, % at 10 µM; IC50 in µM for titrated hits;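 active = confirmed in a dose series; inconclusive = inhibition above 80% but not taken into the dose series; inactive = below 80% or under 30% at every dose of the series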;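 note: bacteria incubated seven days before Alamar blue readout; 0% = bacteria only wells and 100% = bacteria with antibiotic wells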
RecA intein inh – blocks M. tuberculosis RecA intein splicing | cell-free RecA intein splicing, fluorescence | 290,000 compounds, 0.75% hits | inhibition, %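 (about 9 µM by stock and volumes)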 | P9WHJ3; in the data active = inhibition above about 30%; inconclusive = no clear call, values can overlap the other calls;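 note: 0% = vehicle wells and 100% = reference inhibitor control wells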
Target sequence (P9WHJ3 whole entry, looked up): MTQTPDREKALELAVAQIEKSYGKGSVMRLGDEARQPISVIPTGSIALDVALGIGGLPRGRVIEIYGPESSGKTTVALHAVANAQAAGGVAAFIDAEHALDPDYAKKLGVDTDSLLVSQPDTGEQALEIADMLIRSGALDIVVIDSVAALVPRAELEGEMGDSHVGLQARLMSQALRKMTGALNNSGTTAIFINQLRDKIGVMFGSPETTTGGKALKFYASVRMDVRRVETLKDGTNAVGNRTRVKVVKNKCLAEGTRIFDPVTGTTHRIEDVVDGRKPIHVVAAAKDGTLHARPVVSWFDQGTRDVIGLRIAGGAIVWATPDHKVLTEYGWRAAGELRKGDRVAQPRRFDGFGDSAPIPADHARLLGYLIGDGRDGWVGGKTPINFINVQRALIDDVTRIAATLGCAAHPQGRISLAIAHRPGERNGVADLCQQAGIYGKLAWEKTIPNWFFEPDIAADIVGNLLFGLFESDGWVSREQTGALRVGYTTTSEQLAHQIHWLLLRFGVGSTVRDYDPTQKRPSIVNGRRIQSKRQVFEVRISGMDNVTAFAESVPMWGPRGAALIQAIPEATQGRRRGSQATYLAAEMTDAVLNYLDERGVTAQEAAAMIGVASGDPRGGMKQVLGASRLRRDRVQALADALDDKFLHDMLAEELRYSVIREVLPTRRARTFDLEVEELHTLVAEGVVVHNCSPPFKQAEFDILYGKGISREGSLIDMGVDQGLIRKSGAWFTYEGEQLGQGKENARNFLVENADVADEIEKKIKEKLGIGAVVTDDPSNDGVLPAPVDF
YopH PTP inh – inhibitors of Yersinia enterocolitica YopH tyrosine phosphatase; fluorescence Ex485/Em525; inhibition, %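 (about 10 µM by stock and volumes)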; 140,000 compounds, 0.16% hits; AID 898;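 active = inhibition of 50% or more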;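 note: controls were vehicle for no effect and minimum signal wells for full effect; inactives centre near -20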
Mtb bLac sens – beta-lactam sensitization of Mtb H37Rv; 330,000 compounds, 0.27% hits; M. tuberculosis H37Rv growth with meropenem, percent inhibition; hits of this screen are not shown here; inhibition, % at 25 µM;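 active = about 74% or more and at least 40 points above the plate without the antibiotic, then above 30% in a dose series; inconclusive = first-round hits that could not be retested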;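 note: growth measured after seven days incubation then overnight dye step; 0% = bacteria only wells and 100% = bacteria with antibiotic; twin plates without the antibiotic show which effects depend on it; some results filed as inactive read as strong as hits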
Arbovirus anti – blocks arbovirus infection. inhibition, % at 10 µM. AID 1251. 200,000 compounds, 0.37% hits. arbovirus infection cell-based antiviral screen;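 active = inhibition from about 30%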;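 note: bluetongue infection of BSR cells; cell survival read as ATP light after 72 h; 0% = infected wells without compound and 100% = uninfected wells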
Arbovirus anti repeat – further read-out of Arbovirus anti, marked with its call; inhibition, %; measured here: 10K subset replicate screen; many hits read low in the repeat;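 first of two repeat runs on a subset; 0% = infected and 100% = uninfected wells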
Starred values were filed as active, the others as inactive; ? = inconclusive; . = no result given.

SMILES	Mtb growth	RecA intein inh	YopH PTP inh	Mtb bLac sens	Arbovirus anti	others
O=C(O)CC(SCC(=O)Nc1ccc(Br)cc1)C(=O)O (stereo unspecified)	-9.0%	-2.8	.	0.9	-2.1
COc1ccc(NC(=O)Cn2nnc(C(=O)NCCc3ccc(OC)c(OC)c3)c2N)cc1	-10.6%	0.7	-34.7	-20.2	1.8
O=c1[nH]c(=O)n(-c2cccc3ccccc23)c(O)c1/C=N/N1CCCCCC1	-6.9%	.	.	-9.0	.
O=C1C2=C(c3ccccc31)[N+](=O)C1CCCCC1N2[O-] (stereo unspecified)	-0.3%	81.9*	14.5	4.8	-14.0
N/C(=N\OC(=O)CCn1cccc(C(F)(F)F)c1=O)c1ccc(OC(F)(F)F)cc1	-13.4%	-0.5	.	-2.4	.
Cc1sc2ncn(CC(=O)NCCCC(=O)N3CCC(C(N)=O)CC3)c(=O)c2c1C	.	-0.7	.	-1.3	.
CNc1ccn(C2CCCO2)c(=O)n1 (stereo unspecified)	-3.0%	-1.3	.	-0.7	.
COc1ccc(/C=N/NC(=O)c2cc(-c3ccc(C)cc3C)nc3ccccc23)cc1COC(C)=O	.	0.5	-15.3	56.5	-7.2
CCOC(=O)c1c(C)c(C(=O)N2CCCCCC2)c(C)n1CC	-5.4%	0.6	-21.1	-7.7	1.3
CCc1ccc(C(=O)COC(=O)CNC(=O)CNS(=O)(=O)c2ccccc2)cc1	.	0.5	.	-7.5	.
O=C(NNc1ccccn1)C(c1ccccc1)c1ccccc1	6.6%	9.1	.	4.3	-3.9
C=CCN1C(=O)NC(=O)C(Cc2ccc(OC)c(OC)c2)C1=O (stereo unspecified)	-6.5%	0.9	-16.3	-1.8	5.8
COc1ccc(C(=O)Nc2ccc(N3CCN(C(=O)c4ccccc4C)CC3)cc2)cc1	.	-1.8	.	-8.8	.
COC(=O)Cc1cc(=O)[nH]c(/N=C(\N)Nc2ccc(C)cc2)n1	-1.3%	0.1	-8.8	5.5	2.4
CN(C)CCCNC(=S)N1CCN(c2nc(-c3ccccc3)cs2)CC1	.	-8.0	.	-3.2	.
O=C(CCC(=O)N1CCOc2ccccc21)NCCCN1CCOCC1	.	-3.9	.	3.8	.
Cc1ccc(C)c(C(=O)CCC(=O)NCc2ccc(Cl)cc2)c1	-2.1%	1.0	.	2.7	-5.1
COCCNC(=O)/C(C#N)=C\c1ccc(CNS(=O)(=O)c2ccccc2)o1	-0.6%	3.1	.	-1.0	-2.0
COCCN1C(=O)C(=O)/C(=C(/O)c2ccc(S(=O)(=O)N3CCOCC3)cc2)C1c1ccc(C(C)C)cc1 (stereo unspecified)	-8.8%	.	-31.1	.	2.7
CC(=O)c1ccc(NC(=O)c2cc(S(=O)(=O)N3CCOCC3)ccc2C)cc1	.	-1.7	.	-2.8	.
Cc1cc(C)c(C#N)c(N2CCSCC2)n1	-26.4%	-0.3	-42.9	4.8	-4.1
COc1ccc(CCN2C(=O)c3[nH]nc(-c4ccccc4O)c3C2c2cccc(O)c2)cc1OC (stereo unspecified)	4.8%	9.2	-47.8	3.0	-7.5
CNC(=O)C1CC(=O)N(Cc2ccccc2)C(=Nc2ccc(OC)cc2)S1 (stereo unspecified)	10.4%	-1.7	-49.4	-21.7	-4.1
CC(=O)N1CCc2ccc(S(=O)(=O)N3CCN(C)CC3)cc21	-7.8%	-4.7	-28.6	0.5	7.0
NC(=O)CSc1nc(C2CC2)nc2sc3c(c12)CCCC3	0.4%	-3.1	.	0.2	-12.1
COC(=O)C1(NC(=O)NC2CCCCC2)CCCCC1	-1.2%	0.8	.	-1.1	.
Cc1ccc(C)n1NC(=O)c1ccc(Cl)cc1Cl	-0.7%	-0.1	36.6	63.0	-3.8
Cc1ccc2c(Cl)cc(Cl)c(OCC(=O)NC3CCS(=O)(=O)C3)c2n1 (stereo unspecified)	25.7%	1.5	.	83.1	-3.8
CC(=O)N1CCN(S(=O)(=O)c2cccc(C(=O)Nc3ccccc3N3CCOCC3)c2)CC1	3.1%	3.6	.	14.6	-9.2
CCN(CC(=O)Nc1ccc2c(c1)OCCO2)C(=O)/C=C/c1ccccc1	-2.3%	1.6	.	-0.1	-1.2
N#CCSc1nnc(-c2cccnc2)n1-c1ccccc1	-7.8%	0.1	-46.5	-9.5	8.9
Cc1cc(C)nc(OC(C(=O)O)C(OCCc2ccccc2)(c2ccccc2)c2ccccc2)n1 (stereo unspecified)	.	6.8	.	-5.6	.
O=S(=O)(c1cccc(F)c1)N1CCc2sccc2C1c1ccc(OC(F)(F)F)cc1 (stereo unspecified)	-0.2%	3.4	.	1.8	.
C=CCNCCOCCOc1ccc(C)cc1Br	5.7%	-0.7	-22.8	6.9	-23.6
COC(=O)Cn1cnc2sc3c(c2c1=O)CCCC3	-4.6%	-0.7	.	2.5	8.2
Cc1ccc(Nc2nc(C(=O)NCCCN3CCOCC3)cs2)cc1	1.8%	-2.6	-31.2	-18.2	13.7
CN(C)/C=C1\SC(=S)N(N2C(=O)C3C4C=CC(C4)C3C2=O)C1=O (stereo unspecified)	3.5%	0.8	.	-3.7	-0.8
Cc1occc1C(=O)Nc1ccc2ccccc2c1	-3.1%	4.5	-23.2	0.1	-5.4
O=C(N/N=C/C=C/c1ccc([N+](=O)[O-])cc1)c1cccs1	-1.8%	-2.5	-31.9	-0.3	-2.2
CCN(CC(=O)NCc1ccc(F)cc1)C(=O)/C=C/c1ccc(S(=O)(=O)N(CC)CC)cc1	.	-1.7	.	3.7	.
CCO/C(=C/c1sc2ccc(OC)cc2[n+]1CCCS(=O)(=O)[O-])CC	-4.2%	-1.4	-29.7	-2.1	-1.9
O=C(N/N=C/c1[nH]c2ccccc2c1Cl)c1cccc(Br)c1	-5.8%	-1.2	.	8.1	.
CC(C)(C)CC(=O)Nc1cc2c3c(c1)CCC(=O)N3CCC2	.	1.6	.	-15.0	.
CCn1c(O)c(C=NCCN2CCOCC2)c(=O)[nH]c1=S	0.5%	1.6	.	7.3	.
Cc1nnc(SCC(=O)Nc2sccc2C#N)s1	.	-0.4	.	-0.2	.
O=C(COC(=O)Cc1ccccc1F)NCCNC(=O)COC(=O)Cc1ccccc1F	.	3.2	.	0.5	.
Cc1ccc(Cl)cc1N1CCN(C(=O)CCS(=O)(=O)c2ccc3c(c2)NC(=O)CO3)CC1	.	-0.8	.	53.4	.
CCc1ccc(NC(=O)Cn2cccc2)cc1	41.9%	0.8	.	40.2	4.2
Cc1nc(C(=O)N(C)C)nn1-c1ccc(Cl)cc1Cl	-6.3%	-0.8	-0.5	12.2	7.4
CC(C)OC(=O)c1c(N)n(Cc2ccco2)c2nc3ccccc3nc12	10.0%	-73.8	5.4	2.6	-0.9

Molecules listed so far that have a cyano group (4):
SMILES	Mtb growth	RecA intein inh	YopH PTP inh	Mtb bLac sens	Arbovirus anti	others
COCCNC(=O)/C(C#N)=C\c1ccc(CNS(=O)(=O)c2ccccc2)o1	-0.6%	3.1	.	-1.0	-2.0
Cc1cc(C)c(C#N)c(N2CCSCC2)n1	-26.4%	-0.3	-42.9	4.8	-4.1
N#CCSc1nnc(-c2cccnc2)n1-c1ccccc1	-7.8%	0.1	-46.5	-9.5	8.9
Cc1nnc(SCC(=O)Nc2sccc2C#N)s1	.	-0.4	.	-0.2	.

Going on with the list:
SMILES	Mtb growth	RecA intein inh	YopH PTP inh	Mtb bLac sens	Arbovirus anti	others
O=C(CCN1C(=O)S/C(=C\c2ccccc2)C1=O)Nc1ccc(S(=O)(=O)Nc2nccs2)cc1	.	5.5	-61.7	47.1	5.8
NC(=O)C1CCN(c2ncnc3c2c(-c2ccccc2)cn3-c2ccccc2)CC1	8.1%	-0.9	-18.1	-4.7	-3.3	Arbovirus anti repeat=-7.3
CCOC(=O)/C(=N/Nc1ccccc1)c1csc(Nc2ccccc2)n1	79.9%	6.1	-13.6	96.2	-36.6
C=CCN(CC=C)S(=O)(=O)c1ccc(NC(=S)NC(=O)/C=C/c2ccccc2)cc1	9.2%	-1.3	-130.5	-4.5	-9.0
Oc1c(Cl)cc(Cl)cc1/C=C/c1ccc2cccc(O)c2n1	3.06µM*	8.3	.	49.1	12.6
COc1ccc(C(=O)NNC(=O)Cc2ccc(Cl)cc2)cc1	-2.8%	0.2	.	-1.3	-2.6
COc1ccccc1NC(=S)N(Cc1ccco1)Cc1cc2cc(C)cc(C)c2[nH]c1=O	7.8%	2.8	-18.3	4.9	7.5
CCOc1ccc(OCCC(=O)N(CC(=O)Nc2ccccc2C(F)(F)F)Cc2ccco2)cc1	.	-3.8	.	4.5	.
Cc1cc(C(=O)NNc2c(Cl)cccc2Cl)n(C(C)(C)C)n1	-11.8%	-0.7	.	-4.0	.
Cc1ccc(S(=O)(=O)N2CCOCC2)cc1NC(=O)COC(=O)CCC(=O)c1cccs1	?	-0.8	5.5	0.2	-0.8

Gathered by group, the compounds so far with a COOH group (2)
SMILES	Mtb growth	RecA intein inh	YopH PTP inh	Mtb bLac sens	Arbovirus anti	others
O=C(O)CC(SCC(=O)Nc1ccc(Br)cc1)C(=O)O (stereo unspecified)	-9.0%	-2.8	.	0.9	-2.1
Cc1cc(C)nc(OC(C(=O)O)C(OCCc2ccccc2)(c2ccccc2)c2ccccc2)n1 (stereo unspecified)	.	6.8	.	-5.6	.

Additional compounds:
SMILES	Mtb growth	RecA intein inh	YopH PTP inh	Mtb bLac sens	Arbovirus anti	others
CNC(=S)NNC(=O)CSCc1c(Cl)cccc1Cl	-2.7%	-0.2	.	-7.2	.
O=C(OC1CCOC1=O)c1cncc(Br)c1 (stereo unspecified)	-13.8%	1.7	-46.8	-6.3	1.2
CCc1cc(=O)oc2cc(OCC(=O)N3C[C@H]4C[C@@H](C3)c3cccc(=O)n3C4)c(Cl)cc12	.	0.9	.	-5.7	.
Cc1cc(C)c(S(=O)(=O)NCCCn2ccnc2)cc1C	.	0.7	.	0.4	.
Cc1sc2ncnc(SCC(=O)N3CCCC3=O)c2c1C	-1.7%	1.5	10.4	?	-1.7
CCOc1ccccc1N(CC(=O)NCC1CCCO1)C(=O)CCC(=O)Nc1cc(C)on1 (stereo unspecified)	.	-2.7	.	-4.5	.
Cc1ccc2c(c1)C1CCCC3C1N2CC(=O)N3Cc1ccccc1 (stereo unspecified)	2.1%	8.5	3.4	6.7	32.2*	Arbovirus anti repeat=1.1*
CCCn1nc(NS(=O)(=O)c2ccccc2)c2cc3cc(C)ccc3nc21	-6.3%	-0.4	-26.2	-0.1	6.4
CC(=O)N1CCC(C(=O)NC2CCCc3c2cnn3-c2cc(F)cc(F)c2)CC1 (stereo unspecified)	.	-0.2	.	-3.4	.
O=C(COC(=O)C1=COCCO1)NCc1ccc(Cl)cc1	59.9%	0.7	.	90.0	0.6
Cc1cc2ccccc2n2c(SCC(=O)NCC3CCCO3)nnc12 (stereo unspecified)	4.6%	-4.5	.	-4.1	-0.9
Cc1cc(N2CC(C)OC(C)C2)n2cc(-c3ccccc3)nc2n1 (stereo unspecified)	-3.6%	0.1	.	-10.7	7.0
CN(CCc1ccccn1)Cc1ccc(Cl)cc1	-2.1%	0.5	4.4	3.9	16.0
Cc1nn(C)c(C)c1S(=O)(=O)NC1CCCc2ccccc21 (stereo unspecified)	5.6%	.	-26.0	1.7	1.6
CC1CC(N(C(=O)c2ccc(Cl)cc2)c2ccccc2)c2ccccc2N1C(=O)c1ccco1 (stereo unspecified)	13.2%	8.3	12.4	17.4	-22.8
COc1ccc(C)cc1S(=O)(=O)Nc1cc2c3c(c1)CCC(=O)N3CCC2	.	-1.5	.	-6.5	.
Cc1ccc(NC(=O)COC(=O)Cc2csc(-c3ccc(Cl)cc3)n2)cc1C	10.3%	.	-37.4	-8.2	1.0
CCOc1ccccc1NC(=O)c1cc(-c2cc(OC)c(OC)c(OC)c2)nc2ccccc12	.	0.1	.	9.4	.
COc1ccccc1C(=O)NC(=O)COC(=O)c1cccc(OC(F)F)c1	.	-7.9	.	3.4	.
CCC(CO)Nc1ccc(-c2nn(C)c(=O)c3ccccc23)cc1[N+](=O)[O-] (stereo unspecified)	-2.9%	2.3	.	6.3	-18.9
COc1ccc(NC(=O)C2CCC(N3C(=O)C4CCCCC4C3=O)CC2)cc1 (stereo unspecified)	.	0.2	.	-0.9	.
CCOC(=O)Cn1c(=O)n(C2CCCC2)c(=O)c2ccccc21	-4.8%	11.5	10.9	10.1	-1.4
CN(C)CCCN(C(=O)c1ccc(S(=O)(=O)N(C)Cc2ccccc2)cc1)c1nc2cc3c(cc2s1)OCO3	.	-0.4	.	50.8	.
Cc1nonc1C(=O)N1CCCC(Nc2ccc(C(C)C)cc2)C1 (stereo unspecified)	.	-2.1	.	3.0	.

Screening data as filed in PubChem BioAssay.

Only part of the results is shown; rates above refer to the full screens.
